# VACV mCherry inh: inhibitors of vaccinia virus infection (mCherry reporter signal); Vaccinia virus mCherry reporter infection, fluorescence; about a quarter of the inactives have no number; Potency, µM (highest dose often 36.5 µM), inactives show top-dose activity change, negative = inhibition, most hits filed as inhibitors; hit rate 0.63% among 310,000; AID 720579; active = well fitted inhibition curve with a large enough effect; inconclusive = small, poorly fitted or top-dose-only effect; inactive = no such curve, though single readings can be large or run the other way; tested in A549 cells; also: nearly all actives have a fitted effect of over 35% in size; inactives centre near -10
# Vaccinia Venus: inhibitors of vaccinia virus (Venus reporter); AID 720580; Potency, µM (top dose mostly 36.5 µM), for inactives: at the top dose activity change, negative = inhibition, hits mostly inhibitors; Vaccinia virus Venus reporter expression, fluorescence; hit rate 0.46% among 330,000; active means well fitted inhibition curve with a large enough effect; inconclusive means small, poorly fitted or top-dose-only effect; inactive means no such curve, though single readings can be large or run the other way; tested in A549 cells; also: nearly all actives have a fitted effect of over 30% in size; inactives centre near -10
# Active calls of the source: *; i = inactive; ? = inconclusive; . = no result given; & = joins results of further samples; [ ] = remark or other dose. % is scaled to controls: 0 for no effect and ±100 for the full control effect; potency is read from the fitted curve at half-maximal effect. Hits appear at their usual frequency; overall some 0.88% were active at least once.
SMILES,VACV mCherry inh,Vaccinia Venus
CCOC(=O)c1cc(-c2ccccc2)sc1NC(=O)C(C)N1C(=O)NC(C)(c2ccc(Cl)cc2)C1=O (stereo not drawn),-25.4%,?
C[C@H]1CC[C@@]2(O[C@@H](CCO)C[C@@H](O)[C@@H]2O)O1,2.5%,-7.2%
COc1cccc(-c2nnc(SCc3ccc(C#N)cc3)n2Cc2ccco2)c1,.,-26.9%
O=c1[nH]c2cc3c(cc2cc1CN(Cc1nnnn1CC1CCCO1)C1CCCCC1)OCO3 (stereo not drawn),-8.8%,-7.5%
Cc1cccc(Nc2ncnc3onc(-c4cccc(Cl)c4)c23)c1,-3.1%,-16.7%
COc1ccc2cc(C#N)c(N3CCOCC3)nc2c1,i,-5.1%
CCN1CCN(C(=O)c2sc3ncnc(N4CCc5ccccc5C4)c3c2C)CC1,-0.3%,?
COc1ccc(OC)c(NC(=O)Cn2cc(C(=O)c3ccccc3F)c3ccccc32)c1,-25.1%,20.2%
O=C(/C=C/c1ccccc1[N+](=O)[O-])NCc1ccccc1Cl,?,-18.4%
COc1ccc(-c2cc(C(=O)N3CCN(c4ncccn4)CC3)c3ccccc3n2)c(OC)c1,21.3%,-2.5%

# Four entries drawn at random from those above, as already listed:
SMILES,VACV mCherry inh,Vaccinia Venus
O=C(/C=C/c1ccccc1[N+](=O)[O-])NCc1ccccc1Cl,?,-18.4%
COc1ccc(-c2cc(C(=O)N3CCN(c4ncccn4)CC3)c3ccccc3n2)c(OC)c1,21.3%,-2.5%
CCN1CCN(C(=O)c2sc3ncnc(N4CCc5ccccc5C4)c3c2C)CC1,-0.3%,?
COc1ccc(OC)c(NC(=O)Cn2cc(C(=O)c3ccccc3F)c3ccccc32)c1,-25.1%,20.2%

# Further structures.
SMILES,VACV mCherry inh,Vaccinia Venus
COC(=O)C1=C(N)c2c(F)cccc2C1(C#N)c1ccccc1 (stereo not drawn),.,-15.8%
CNc1ccc(C2(O)C(=O)c3ccccc3C2=O)cc1,-14.9%,-13.7%
CN(C)S(=O)(=O)c1ccc2c(c1)nc1n2CCC1,-28.3%[1.46 µM],-18.7%
Cc1cc(C)cc(NC(=O)N2CCN(c3cc(-c4noc(C)n4)ccc3C)CC2)c1,-18.4%,-23.5%
Cc1ccccc1C(=O)N(Cc1cccs1)C1CCS(=O)(=O)C1 (stereo not drawn),-13.4%,-4.2%
CCCCN(CC)C(=O)c1ccc(Cl)cc1,-9.2%,14.7%
Nc1nc(Cl)cc(Nc2ccccc2Cl)n1,-14.2%,-20.2%
COc1ccc(-c2cc(NC(C)=O)c3ncc(-c4ccc(OC)c(OC)c4)n3c2)cc1OC,i,19.2%
COCCCNc1ncnc2ccc(C)cc12,?,?
Cc1nn2c3c(cnc2c1-c1ccc(F)cc1)C(=O)CC(c1ccccc1)C3 (stereo not drawn),-12.5%,-8.4%
CC1(C)ON=C(c2cccc(F)c2)NC1=O,30.5%[activator],8.3%
Cc1ccc(-c2csc(C(O)c3ccccc3)n2)cc1C (stereo not drawn),-3.6%,-4.4%
CC(C)=CCCC(C)C1CC[C@@]2(C)C3=C(CC[C@@]12C)C1(C)CCC(O)C(C)(C)C1CC3 (stereo partly drawn),i,0.0%
C=CCn1c(SCC(=O)NC2CCCCC2)nnc1-c1ccc(OC)cc1,-1.5%,-9.6%
CCOC(=O)c1cnc2cc(C)nn2c1-c1ccccc1,-0.3%,-16.7%
COc1cccc(C(=O)NCCSCc2c(F)cccc2Cl)c1,-1.4%,-15.3%
Cc1ccc(CNC(=O)CSc2nc(=O)[nH]c3c2CCCC3)cc1,-6.9%[7.34 µM],-6.4%[7.34 µM]
CCCCn1c(O)c(C(C)=NCc2cccnc2)c(=O)[nH]c1=O,i,-12.5%
CC1CCCC(C)N1S(=O)(=O)c1ccc(S(=O)(=O)NCc2ccccc2)cc1 (stereo not drawn),-21.3%,-17.3%
COc1cc(CN(C(=O)c2cccc(C)c2)c2ccccn2)cc(OC)c1OC,?,?
O=Cc1cn(CC(=O)Nc2ccc(F)cc2)c2ccccc12,-5.3%,-11.6%
Cc1ccc(NC(=O)CN2C(=O)NC3(CCc4ccccc43)C2=O)cc1 (stereo not drawn),-0.7%,-5.2%
Cn1cnnc1SCC(=O)Nc1ccc(S(=O)(=O)N2CCOCC2)cc1,-13.0%,-7.0%
COc1ccccc1NC(=O)N1C2CCCC1CC(NC(=O)c1ccccc1)C2 (stereo not drawn),-4.2%,1.4%
CCN(CC)CCCN(Cc1cc2cc3c(cc2[nH]c1=O)OCO3)C(=O)Nc1ccccc1OC,-5.1%,-20.2%
Cc1ccc(S(=O)(=O)N2CCOCC2)cc1NC(=O)COc1ccc2c(C)cc(=O)oc2c1,-23.4%,-18.9%
Fc1ccc(CSc2nncn2NCc2ccc3c(c2)OCO3)cc1,i,-8.2%
COc1ccc(-c2oc3ccc(-c4cc(OC)c(OC)c(OC)c4)cc3c2C(=O)c2ccc(OC)nc2)cc1,-10.4%,-12.4%
CCOCCCNC(=O)c1cc(Nc2ccc(OC)cc2OC)nc2ccccc12,i,-2.4%
CC(C)N(CCc1ccncc1)C(=O)Nc1ccc(F)cc1,-20.6%,-5.3%
CCOC(=O)C1=C[C@@H](OC(CC)CC)[C@H](NC(C)=O)[C@@H](N)C1,-15.5%,-7.5%
Cn1c(=O)[nH]c(=O)c2c1nc(Br)n2C/C=N/NC(=O)c1ccccc1,-5.0%,-2.4%
CCCS(=O)(=O)N1CCCC(C(=O)NCc2ccc(C)cc2)C1 (stereo not drawn),.,-24.2%
COc1cccc(NC(=O)CSc2nnnn2C(C)C)c1,-12.4%,-13.8%
CCOP(=O)(OCC)c1cccc(OP(=O)(c2cccc([N+](=O)[O-])c2)c2cccc([N+](=O)[O-])c2)c1,i[7.34 µM],-3.4%[7.34 µM]
Cc1nc(-c2ccc(Cl)cc2)sc1C1(C)CC(c2ccc([N+](=O)[O-])cc2)=NO1 (stereo not drawn),-4.9%,-11.9%
COc1ccc(NC(=O)C2CCN(S(=O)(=O)c3ccc(N4CCCC4=O)cc3)CC2)cc1OC,i,-12.1%
Cc1cccc2c(N3CCCC3)nc(CNS(=O)(=O)c3ccc4ccccc4c3)nc12,-12.9%,7.8%
C[C@@H]1CCCCO[C@H](CN(C)Cc2ccc(C(F)(F)F)cc2)[C@@H](C)CN([C@H](C)CO)C(=O)c2cc(NS(=O)(=O)c3cn(C)cn3)ccc2O1,-3.7%,-4.8%
c1cnn(-c2cncc(-n3cccn3)n2)c1,i,-5.4%
CC1CN(Cc2nnc(-c3ccccc3)o2)CC(C)O1 (stereo not drawn),-0.7%,0.0%
O=C(Nc1nc(-c2cccnc2)cs1)c1ccc([N+](=O)[O-])cc1,-21.4%,-5.9%
Cn1c(O)c(C=NCCCN2CCCC2=O)c(=O)n(C)c1=O,-3.2%,0.5%
CN1CCN(CC(O)COCCOc2ccc(Br)cc2)CC1 (stereo not drawn),-18.2%,-10.9%
CC(C)(C)NCCCCOc1ccc(F)cc1,-3.2%,-10.3%
Cc1noc(C)c1S(=O)(=O)Nc1ccc(C(=O)NC2CCCCC2C)cc1 (stereo not drawn),-15.6%,-14.5%
COc1ccc(OC)c(NC(=O)Cn2cc(C#N)c3ccccc32)c1,-3.6%,-10.3%
NC(=NCc1ccc2c(c1)OCO2)NC(=O)c1ccccc1,-9.0%,-5.4%
COc1cc(C2C(C(C)=O)=C(O)C(=O)N2CCc2c[nH]c3ccccc23)ccc1O (stereo not drawn),-6.2%,-15.0%
Cc1cc(C)n(/N=C/c2c[nH]c3ccccc23)c(=O)c1,-10.9%,-10.9%

# Reformatted tab-delimited: entries from further up
mol	VACV mCherry inh	Vaccinia Venus
COc1ccc(OC)c(NC(=O)Cn2cc(C(=O)c3ccccc3F)c3ccccc32)c1	-25.1%	20.2%
Cc1cc(C)n(/N=C/c2c[nH]c3ccccc23)c(=O)c1	-10.9%	-10.9%

# Some of the entries above in a different format:
smiles	VACV mCherry inh	Vaccinia Venus
Cc1ccc(-c2csc(C(O)c3ccccc3)n2)cc1C (stereo not drawn)	-3.6%	-4.4%
CC(C)=CCCC(C)C1CC[C@@]2(C)C3=C(CC[C@@]12C)C1(C)CCC(O)C(C)(C)C1CC3 (stereo partly drawn)	i	0.0%

# The listing continues:
SMILES,VACV mCherry inh,Vaccinia Venus
CCCCCOc1ccc(NC(=O)C2OC3OC(C)(C)OC3C3OC(C)(C)OC23)cc1 (stereo not drawn),i,-6.6%
CCc1nc2sc3c(N4CCC(C)CC4)ncnc3c2c2c1CCCC2,-7.4%,3.2%
CC(C)(C)OC(=O)N1CCC2(CC1)Oc1ccc(F)cc1C(=O)C21CC(c2ccccc2)=NO1 (stereo not drawn),9.4%,-8.9%
Cc1ccc2nc(N3CCN(C)CC3)c(C#N)cc2c1,-10.9%,-16.4%
C[C@@H]1CN([C@H](C)CO)S(=O)(=O)c2ccc(Br)cc2O[C@@H]1CN(C)Cc1ccc(-c2ccccc2)cc1,-25.9%,-18.2%
O=C(CN1C(=O)CCC1=O)Nc1nc(-c2ccccn2)cs1,-0.3%,-18.5%
CCOC1=C2[C@@H](CN(S(=O)(=O)c3ccc(C)cc3)[C@H]2c2cccc3ccccc23)[C@H]2C(=O)NC(=O)[C@H]2C1,i,-9.9%
COc1ccc(C)cc1Nc1ncnc2c1c(-c1ccccc1)cn2-c1ccc(C)cc1,-16.9%,-10.8%
COc1ccc(S(=O)(=O)NCc2ccccn2)c(C)c1C,-3.2%,-3.3%
Cc1cccc(CNC(=O)C2CCC(=O)N(C3CC3)C2)c1 (stereo not drawn),i,1.7%
Oc1ccccc1N1CCN(c2ncnc3scc(-c4ccc(F)cc4)c23)CC1,?,-16.3%
CCC(C)N1CCC(Oc2ccc(C(=O)NCc3ccccn3)cc2)CC1 (stereo not drawn),-11.5%,-17.4%
CC(=O)Nc1nc(-c2ccccc2)c(-c2ccccc2)s1,i,-9.6%
O=C(CCn1c(=O)[nH]c2ccccc2c1=O)NCCSCc1ccccc1,-25.0%,-20.3%
S=C1NC[C@H](CC2CCCCC2)N1CC1CCCCC1,-22.8%,?
O=C(C/C(=N/O)c1ccccc1O)C(F)F,.,-5.9%
CCc1ccc([C@@H]2CC=C(C(=O)O)CN2S(=O)(=O)c2ccc(C)cc2)cc1,1.9%,-3.9%
COc1ccc(CN(Cc2ccc(C(=O)O)cc2)C(=S)Nc2ccccc2Cl)cc1OC,i,-9.1%
COCC(=O)N(C)c1nnc(-c2cnc(C)cn2)s1,-17.5%,-4.8%
COc1ccc(C(=O)c2sc3nc(-c4ccccc4)ccc3c2N)cc1,-15.7%,-8.1%
Cc1cccc(CNc2cc(-c3cccnc3)ncn2)c1,-12.2%,-11.7%
Cc1cc(C)c2nc(/N=C(\N)NC(=O)Nc3ccccc3)nc(C)c2c1,?,-28.4%
COc1ccc(CCNC(=O)Cn2nnc(C(=O)Nc3cccc(C)c3C)c2N)cc1OC,-6.3%,-15.5%
C/C(=N\Nc1ccc([N+](=O)[O-])cc1[N+](=O)[O-])C(C)(C)C(C(=O)O)C(=O)O,-17.2%,-11.9%
CC1CCCCC1NC(=O)C1CCN(S(=O)(=O)c2ccc3c(c2)CCC(=O)N3)CC1 (stereo not drawn),47.5%[activator],-2.8%
COc1ccc(OC)c(NC(=O)COC(=O)CCc2nc3ccccc3c(=O)[nH]2)c1,i,-11.4%
COc1ccc(Cl)cc1NC(=O)C1CC(c2ccccc2O)=NO1 (stereo not drawn),-14.5%,-11.9%
O=C(Cn1nc(-c2ccc(Cl)cc2)c2ccccc2c1=O)Nc1cccc(C(F)(F)F)c1,-12.0%,10.3%
CCOC(=O)c1cc(-c2c(Cl)cccc2Cl)no1,-9.8%,0.1%
Cc1ccc2c(=O)c(C(=O)c3cccc(Cl)c3)cn(CC(=O)NCc3ccc(F)cc3)c2n1,-1.4%[7.34 µM],-6.0%[7.34 µM]
Cc1cccc(C(=O)NC(=S)NNC(=O)c2ccc(Cl)cc2)c1,-3.9%,?
COc1ccccc1NS(=O)(=O)c1cc(NC(=O)c2cccs2)ccc1N1CCOCC1,31.1%[activator],-12.1%
CCc1nn(CC(=O)NCCc2ccc(OC)cc2OC)c(=O)c2cc3occc3n12,-4.9%,-4.3%&-11.1%
Cn1c(=O)c(=O)n(C)c2cc(S(=O)(=O)N3CCCC3C(=O)Nc3cccc(F)c3)ccc21 (stereo not drawn),-12.8%,-4.1%
COC(=O)c1cc(-c2cccc(OC)c2)c2c(=O)[nH]c(=O)n(C)c2n1,i,-2.2%
CSCCC(C(=O)NCc1ccccc1)n1c(Cc2cc(F)cc(F)c2)nc2ccccc21 (stereo not drawn),-21.0%,-27.5%
COc1cc(NC(=S)N(C)CCC#N)c(OC)cc1Cl,i,3.7%
O=C(NCN1CCCCC1)c1cnccn1,.,-13.4%
O=C1Cc2ccccc2C(=O)N1c1ccc(F)cc1Cl,i,-7.1%
CCCc1nc2c([nH]1)C(c1cccnc1)C(C#N)=C(N)O2 (stereo not drawn),i,-11.6%
Cc1ccc2c(c1)C(=O)C(=O)N2CC(=O)Nc1ccc(N2CCOCC2)cc1,-19.1%,6.7%
COc1ccc(CNC(=O)CN(Cc2ccco2)C(=O)CNS(=O)(=O)c2ccc(C)cc2)cc1,-3.8%,-2.9%
COc1ccc(OC)c(-c2cc(C(=O)NC3CCCC3)c3ccccc3n2)c1,-13.1%,-3.3%
COc1ccc(NC(=O)CSc2ccc(-c3cccs3)nn2)cc1,-13.1%,-9.9%
COc1ccccc1N1CCN(C(=O)c2c(-c3ccccc3)noc2C)CC1,?,-17.1%
COc1cccc(CN(C)C(=O)CCc2nnc(-c3ccsc3)o2)c1,-14.3%,-6.4%
Cc1ccc2c(c1)C1CC(C)(O2)N(c2cccc(C(=O)NCc3ccccn3)c2)C(=O)N1 (stereo not drawn),-3.7%,-10.5%
Oc1ccc(-c2cn3c(n2)SCC3)cc1,0.5%,6.8%
OCCCN=c1cc(-c2ccccc2)oc2ccc(Cl)cc12,.,?
